# Bioassay records deposited in PubChem by National Center for Advancing Translational Sciences (NCATS).
# Sfp inh = Sfp phosphopantetheinyl transferase inhibition; Potency, µM, inactives show max response, negative = inhibition, hits mostly inhibitors; Biochemical Sfp PPTase activity, qHTS; Q9F4F7; 310,000 tested, 3.5% active; active = well fitted inhibition curve with a large enough effect; inconclusive = small, poorly fitted or top-dose-only effect, or another doubt; inactive = no such curve, though single readings can be large or run the other way;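 also: the enzyme is Sfp with the accession as filed and its product quenches rhodamine fluorescence; potency is read from the fitted curve at half-maximal effect; 0% = enzyme reaction without inhibitor and -100% = no enzyme wells; top concentration of the series not given in the record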
#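 Fluorescence-quenching assay: 15 nM Sfp-PPTase preincubated 15 min at room temperature with compound, then 5 uM rhodamine-CoA and 12.5 uM BHQ-2-labelled YbbR peptide added. Fluorescence (ex 525/em 598 nm) read at start and after 30 min; difference gives rate.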
# D2 ag = human D2 receptor agonism in beta-arrestin assay; P14416; DiscoveRx PathHunter D2 beta-arrestin, luminescence, 90 min; 100% = 57 uM dopamine signal; activation, % (no concentration beside the values); 360,000 tested, 0.084% active; AID 624465; in the data active = activation above about 40%; inconclusive = about 15% to 40%; inactive = below about 15%; also: compound concentration not given in the record; the text of the record calls up to 30% inactive
#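 Agonist mode: compounds alone added to overnight-plated D2 PathHunter cells for 90 min at 37 C, with 57 uM final dopamine (EC100) defining full response. Beta-arrestin recruitment detected by chemiluminescent reagent, read after 1 h at ambient temperature.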
# CtBP-E1A inh = blocks the CtBP interaction with E1A. AlphaScreen GST-E1A/His-CtBP binding, 1536-well; stronger effect = lower value; control for the full effect not named in the record. 340,000 tested, 0.49% active. activity change, % (test concentration not listed); in the data active means activity change below about -65%; inconclusive means about -30% to -65%; inactive means above about -30%; also: % is scaled to controls: 0 for no effect and ±100 for the full control effect; compound concentration not given in the record
#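 AlphaScreen with 125 nM GST-E1A and 125 nM His-CtBP (5X stocks) in Tris pH 8.0, 300 mM NaCl, BSA, Tween 20, TCEP. Compounds preincubated 2 h at 37 deg C, then glutathione donor/nickel acceptor beads added for 1 h at 37 deg C in dark.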
# TRPV1 PAM = potentiators of human vanilloid receptor 1 (TRPV1); Q8NER1; TRPV1-expressing cells, Fluo-8 calcium influx, capsaicin EC20 potentiation; host cell line not named in the record; control for the full effect not named in the record; potentiation, % at 8.33 µM; 320,000 tested, 0.02% active; AID 540277; active means potentiation above 80%; inconclusive means 30% to 80%; inactive means below 30%; also: 0% is about no effect
#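 Fluo-8 calcium influx in TRPV1-expressing cells, kinetic read (ex 480/em 520 nm). Compound added and read 3 min for agonist activity, followed by capsaicin at EC20 final and 2 min further read for enhancement.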
# Six1-Eya2 blk = inhibitors of human Six1/Eya2 interaction; Q15475+O00167; AlphaScreen GST-Six1/His-Eya2 binding, biochemical; stronger effect = lower value; control for the full effect not named in the record; activity change, % (concentration not given with the values); 360,000 tested, 0.56% active; AID 651725; in the data active = activity change below about -65%; inconclusive = about -30% to -65%; inactive = above about -30%; also: % is scaled to controls: 0 for no effect and ±100 for the full control effect
# Target sequence (O00167 whole entry, looked up): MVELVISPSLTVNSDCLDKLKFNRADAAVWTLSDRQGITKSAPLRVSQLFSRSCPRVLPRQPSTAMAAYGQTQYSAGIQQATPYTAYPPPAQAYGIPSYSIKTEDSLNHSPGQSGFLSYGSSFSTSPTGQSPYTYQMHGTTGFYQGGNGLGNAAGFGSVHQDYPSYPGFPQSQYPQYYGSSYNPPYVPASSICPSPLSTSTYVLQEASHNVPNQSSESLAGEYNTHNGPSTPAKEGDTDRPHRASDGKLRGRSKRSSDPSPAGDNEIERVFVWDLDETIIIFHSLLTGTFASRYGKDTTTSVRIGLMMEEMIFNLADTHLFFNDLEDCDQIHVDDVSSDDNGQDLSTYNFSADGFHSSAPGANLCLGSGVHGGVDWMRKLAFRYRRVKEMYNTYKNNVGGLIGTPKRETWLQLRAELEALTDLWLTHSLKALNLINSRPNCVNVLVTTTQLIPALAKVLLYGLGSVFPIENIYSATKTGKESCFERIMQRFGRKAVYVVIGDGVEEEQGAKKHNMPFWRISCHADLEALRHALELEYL
# Target sequence (Q15475 whole entry, looked up): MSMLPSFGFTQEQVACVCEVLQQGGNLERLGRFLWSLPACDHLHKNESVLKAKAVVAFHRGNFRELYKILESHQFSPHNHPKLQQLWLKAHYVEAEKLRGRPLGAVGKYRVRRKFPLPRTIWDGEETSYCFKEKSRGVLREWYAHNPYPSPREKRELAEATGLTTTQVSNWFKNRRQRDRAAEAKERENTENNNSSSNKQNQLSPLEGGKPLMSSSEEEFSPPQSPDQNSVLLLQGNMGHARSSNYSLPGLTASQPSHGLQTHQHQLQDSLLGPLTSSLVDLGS
#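 AlphaScreen luminescence read after one hour at 37 °C in darkness. Pin-transferred compounds met GST-Six1 and His-Eya2 protein (5X stock 250 nM/500 nM) plus glutathione donor and Ni-chelate acceptor beads (5X, 50 ug/mL).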
# PINK1 modulator = PINK1 expression modulation. PINK1 immunofluorescence, high-content cytometry, 24 h. Potency, µM (highest dose often 76.6 µM), inactives show at the top dose activation (PINK1 increase), actives largely listed as activators. 410,000 tested, 0.2% active; active = well fitted activation curve with a large enough effect; inconclusive = small, poorly fitted or top-dose-only effect; inactive = flat fitted curve, though single readings scatter; cell line not stated here;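 also: potency is read from the fitted curve at half-maximal effect; % of control where 0% means no effect; nearly all actives have a fitted effect of over 65% in size; a mitochondrial uncoupler was the plate control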
#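 Fluorescence from anti-PINK1 antibody, together with nuclear and cell stains, was scanned on a laser-scanning cytometer. Before staining, stable-line cells were incubated 24 hours with compounds at 5 concentrations; primary antibody 12 h at 10 degrees C.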
# D2 potentiator = potentiates the human D2 dopamine receptor allosterically; P14416; potentiation, % (test concentration not listed); DiscoveRx D2 beta-arrestin cells, luminescence, 90 min; 100% = 57 uM dopamine signal; 360,000 tested, 0.23% active; active = potentiation of 50% or more; inconclusive = 30% to 50%; inactive = 30% or less;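 also: compound concentration not given in the record; tested on top of an EC20 dose of dopamine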
#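 PathHunter D2 cells, attached overnight at 37 deg C, received compound in DMSO plus dopamine at EC20 (50 nM final) for 90 min at 37 deg C. Beta-arrestin recruitment was read as luminescence after 1 h with detection reagent at ambient temperature.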
# The depositor's hits bear a star; ? = inconclusive; . = not tested or not shown; [ ] = remark or other dose. The order is random; 3.7% or so of the library scored in one or more.
structure,Sfp inh,D2 ag,CtBP-E1A inh,TRPV1 PAM,Six1-Eya2 blk,PINK1 modulator,D2 potentiator
Cc1nc2cc(NC(=O)NCCCO)ccc2o1,-1.5%,-4.5,7.4,8.8,-4.4,0.8%,-4.0
COC(=O)/C=C1/N/C(=N\c2nc(C)cc(C)n2)N(c2cccc(C)c2)C1=O,?,-3.5,2.7,15.1,0.9,0.2%,-18.2
COc1ccc(/C=N/NC(=O)C2(O)c3ccccc3-c3ccccc32)cc1,-1.5%,-1.8,0.0,1.7,5.2,0.0%,-4.6
COc1ccc(N2CC(C)(C)C2=O)cc1,13.9%,-0.9,2.2,-0.2,3.8,-0.5%,-2.8
CCN1C[C@@H]2[C@@H]3C(=O)N(C)C(=O)[C@@H]3[C@](C)(C1=O)N2C(=O)c1ccc(C(C)(C)C)cc1,.,-1.0,10.8,.,3.4,-0.3%,4.6
CC(c1nc2ccccc2c(=O)[nH]1)N(C)CCOc1ccc(Cl)cc1 (stereo unspecified),11.6%,-4.4,.,15.8,3.8,-0.5%,-12.2
Cc1sc2ncnc(N3CCC(C(=O)NNC(=O)c4ccccc4Cl)CC3)c2c1C,14.4%,-1.3,-14.6,-2.8,?,-0.4%,-12.1
COc1ccc(OC)c(C(C)NC(=O)c2ccc(Br)cc2)c1 (stereo unspecified),15.2%,-0.9,0.7,-8.4,8.8,1.2%,-10.0
Cc1ccc(-c2nnn(CC(=O)N(C)C3CCCCC3)n2)o1,16.6%,-5.7,-4.8,3.1,-2.3,-1.0%,-5.1
CS(=O)(=O)N(CC(O)Cn1c2ccccc2c2ccccc21)c1cccc2ccccc12 (stereo unspecified),17.0%,1.6,-8.2,25.4,-11.8,-1.4%,-8.0
O=C(CSc1ccc(-c2ccccc2)nn1)NC1CCCC1,4.2%,-9.4,-3.8,11.3,-1.1,?,-18.0
COc1ccc(C)cc1NC(=O)CSc1nnc(-c2ccc(Br)cc2)o1,1.1%,-0.8,10.4,-4.6,2.4,1.8%[38.3 µM],-18.2
C=CCn1c(SCC(=O)c2[nH]c(C)c(C(C)=O)c2C)nnc1-c1ccncc1,20.3%,0.1,-2.6,10.5,-3.9,-0.4%,-1.4
Cc1cccc(OCC(=O)NCc2n[nH]c(=O)c3ccccc23)c1,.,0.0,0.5,21.5,3.5,1.9%,-27.4
Nc1nc(SCC(=O)NN(c2ccccc2)c2ccccc2)n[nH]1,1.5%,0.5,-3.2,-3.0,-9.2,-2.5%,-4.6
O=C(NC1CCCCC1)c1ccc(CS(=O)Cc2ccc(Cl)cc2)o1 (stereo unspecified),6.9%,2.5,3.2,8.4,2.0,-0.6%,-2.8
CC(C)CC(C(=O)NC1CCCCC1)N(Cc1cccs1)C(=O)c1snc(C(N)=O)c1N (stereo unspecified),16.5%,7.2,0.0,-9.4,-5.1,-0.1%,-1.8
COC(=O)c1ccc(C)c(NC(=O)CN(c2cc(OC)ccc2OC)S(C)(=O)=O)c1,5.6%,-0.1,-6.1,-2.8,1.1,-2.6%[38.3 µM],-19.1
Cc1cccc(N(CC(O)CN2CCCC2)S(=O)(=O)c2ccccc2)c1 (stereo unspecified),4.5%,-1.8,0.5,6.7,6.5,-1.5%,-10.6
Nc1[nH]c(C(=O)c2ccccc2)c(-c2ccccc2C(F)(F)F)c1C(=O)NCc1cccc2ccccc12,.,.,-1.2,.,0.4,22.2%,.
Cc1cccn2c(CNCCc3ccccn3)c(C(=O)N3CCOCC3)nc12,2.6%,-3.1,-1.3,-16.3,0.9,1.2%,-12.6
CCNC(=O)C1CCCN(Cc2ccc3ccccc3c2Br)CC1 (stereo unspecified),.,-6.1,5.2,.,-1.1,-1.0%,-18.7
CC1(C(=O)NS(=O)(=O)c2cccc(C#N)c2)CCN1C(=O)CCC1CCCC1 (stereo unspecified),.,-1.7,6.9,.,3.5,-0.2%,-2.8
CCn1c(CC(=O)Nc2ccc(F)cc2)nnc1SCC(=O)N1CCOCC1,17.2%,-6.8,2.1,3.0,8.0,-0.7%,-27.6
O=[N+]([O-])c1cc(/C=N/n2c(-c3ccncc3)n[nH]c2=S)ccc1Cl,-21.2%,4.5,-2.9,5.3,-21.7,-0.4%,-0.2
Cc1ccccc1NC(=O)C1=CC=CN2CCS(=O)(=O)N=C12,.,-1.7,.,15.6,9.5,4.4%,-13.7
COc1cccc(Nc2ncccc2C(=O)Nc2ccccc2)c1,10.4%,-1.5,-21.6,-0.4,-14.9,6.1%,-2.2
O=C(COC(=O)c1ccc2ccccc2n1)NC1CCCCC1,.,2.4,2.3,?,5.2,-0.4%,0.9
Cc1cccc(N2CCN(S(C)(=O)=O)CC2)c1C,3.7%,-2.4,-1.5,2.9,2.2,-0.2%,10.6
Cc1ccc(NC(=O)CC2=NC(=O)C(CC(=O)Nc3ccccc3F)S2)cc1 (stereo unspecified),30.3%[activator],-1.3,9.0,0.5,3.7,8.1%,-8.0
CCN(CC)c1ccc(NC(=O)c2cc3c(OC)cccc3[nH]2)cc1,-7.2%,0.3,?,-5.7,?,3.4%,-5.7
CC(C)NC(=O)c1ccc2c(c1)N(Cc1ccccc1)C(=O)C(C)(C)O2,21.3%,-7.6,-19.7,-7.9,-9.4,3.0%,1.8
O=C(c1cccc(N2C(=O)C3C4C=CC(C4)C3C2=O)c1)N1CCCCCC1 (stereo unspecified),17.8%,-1.0,4.1,0.6,0.5,-0.4%,-4.6
COc1ccc(C(=O)/C=C/Sc2nc3ccccc3o2)cc1,0.6%,-4.7,-14.5,22.1,-9.8,0.2%,-15.1
C#CC[N+](C)(C)CCN1C(=O)C2C(c3ccccc3)C=CC(c3ccccc3)C2C1=O (stereo unspecified),9.2%,-4.2,7.7,-3.0,3.1,-1.0%,-1.5
CN(c1ccccc1)C(c1ccc(F)cc1)c1nnnn1C1CCCC1 (stereo unspecified),11.8%,-3.2,11.1,-17.9,6.2,1.7%,2.2
CCOC(=O)c1cc2c(=O)n3ccccc3nc2n(CCOC)c1=NC(=O)C(C)(C)C,9.1%,-0.8,2.2,-10.0,-0.7,0.6%,11.0
COc1ccc(OCCNC(=S)Nc2cccc3ccccc23)cc1,13.2%,-0.6,-19.7,18.9,-23.9,-2.4%[38.3 µM],-14.7
Nc1cc(C(=O)O)ccc1Nc1ccccc1,13.1%,4.8,-12.8,.,2.3,-2.2%,10.8
Cc1ccc(C=Nc2ccccc2C#N)s1,6.7%,1.7,4.5,1.3,-1.6,-0.9%,-2.7

# Sorted by count of non-hydrogen atoms (falling): some entries from above
structure,Sfp inh,D2 ag,CtBP-E1A inh,TRPV1 PAM,Six1-Eya2 blk,PINK1 modulator,D2 potentiator
CCn1c(CC(=O)Nc2ccc(F)cc2)nnc1SCC(=O)N1CCOCC1,17.2%,-6.8,2.1,3.0,8.0,-0.7%,-27.6
Cc1cccc(N(CC(O)CN2CCCC2)S(=O)(=O)c2ccccc2)c1 (stereo unspecified),4.5%,-1.8,0.5,6.7,6.5,-1.5%,-10.6
COc1cccc(Nc2ncccc2C(=O)Nc2ccccc2)c1,10.4%,-1.5,-21.6,-0.4,-14.9,6.1%,-2.2

# More structures:
structure,Sfp inh,D2 ag,CtBP-E1A inh,TRPV1 PAM,Six1-Eya2 blk,PINK1 modulator,D2 potentiator
Oc1ccc(-c2nc3ccccn3c2NCc2ccc3c(c2)OCO3)cc1,-0.4%,4.9,-9.8,-11.6,-28.8,7.2%,27.0
COc1ccc(-c2oc(/N=C/N3CCOCC3)c(C#N)c2-c2ccc(OC)cc2)cc1,-8.7%,-2.6,-27.0,0.6,-23.7,-1.9%,-2.5
CN1CC(=O)N2C(c3ccc(Cl)cc3)c3[nH]c4ccccc4c3C[C@H]2C1=O (stereo partly specified),-4.7%,12.4,.,-0.4,-4.3,0.2%,9.0
CNC(=O)NC(=O)C(OC(=O)c1cccc(S(=O)(=O)N2CCCCC2)c1)c1ccccc1 (stereo unspecified),-0.4%,-1.0,6.9,9.8,-0.9,7.0%,-20.7
COc1ccc(C(CNC(=O)c2ccc(C)c(S(=O)(=O)N3CCOCC3)c2)N2CCCC2)cc1 (stereo unspecified),.,0.6,2.2,.,-1.5,2.5%,-6.0
O=S(=O)(NC1c2cccc3cccc(c23)C1N1CCNCC1)c1ccc(Cl)cc1 (stereo unspecified),-16.2%,-2.3,-9.5,8.5,-1.9,0.3%,-10.8
COCCNC(=O)COC(=O)/C=C/c1c(C)nn(Cc2ccc(Cl)cc2Cl)c1Cl,-2.1%,-3.7,-0.1,-6.3,-1.4,3.8%,9.7
CCN1CCN(c2ccc(S(=O)(=O)N3CCCCC3)cc2NC(=O)/C=C/c2ccc(OC(F)F)cc2)CC1,.,0.4,-28.6,-7.2,-3.1,3.2%,-17.6
CC1CC(C)(C)NC(=S)N1CCCC(=O)NCc1ccccc1 (stereo unspecified),-16.6%,-1.4,-20.0,-11.0,-9.2,0.7%,-1.4
Nc1nc(SCc2ccccc2Cl)[nH]c(=O)c1-c1ccccc1,20.5%,1.0,-11.2,7.6,1.6,-0.5%,2.4
O=C(Nc1ccccc1)c1nc[nH]c1C(=O)N1CCN(c2ccccc2)CC1,.,-2.4,2.5,-3.7,4.1,3.1%,-10.7
Cc1cc(Cn2nc(-c3ccccc3)cc2C(=O)NCc2cccs2)on1,.,-0.3,5.6,-11.0,3.0,-1.1%,-7.2
COC(=O)C(NC(=O)C(NC(=O)C1CCC(C)CC1)C(C)C)C(C)C (stereo unspecified),.,-5.9,3.1,.,-3.2,2.2%,-0.9
CN(C)S(=O)(=O)c1ccc(NC(=O)C2COc3ccccc3O2)cc1 (stereo unspecified),9.4%,1.7,-5.6,?,1.0,0.2%,0.3
CCn1c(CNC(=O)c2ccccc2)nc2ccccc21,.,-1.1,1.4,.,3.4,.,-7.7
COc1ccc(CNC(=O)OCc2nccnc2C(=O)Nc2ccc(Br)cn2)cc1,-7.9%,5.6,3.3,-5.5,0.6,6.3%,0.1
NC(=S)Nc1ccc(Cl)c(Cl)c1,11.8%,-4.7,.,2.3,-2.0,0.0%,-15.6
N#C/C(=C\c1ccccc1)C(=O)N1CCN(c2ccccc2F)CC1,-1.9%,-8.9,5.4,-25.2,5.3,2.4%,3.1
c1ccc2c(COn3nnc4ccccc43)cccc2c1,?,3.0,25.2,0.6,7.3,-1.1%[38.3 µM],-5.3
